Screens from PubChem BioAssay.
VDR inh = Inhibitors of the vitamin D receptor (VDR): qHTS | Vitamin D3 receptor (Homo sapiens), P11473 | VDR-SRC2-3 peptide fluorescence polarization, 2 h | Potency, µM, for the others: max response, negative = inhibition, hits mostly inhibitors | actives 0.93% (n = 400,000) | AID 504847, 2011; active = well fitted inhibition curve with a large enough effect; inconclusive = small, poorly fitted or top-dose-only effect, or another doubt; inactive = no such curve, though single readings can be large or run the other way; also: series mostly up to about 120 µM
Target sequence (P11473 whole entry, looked up): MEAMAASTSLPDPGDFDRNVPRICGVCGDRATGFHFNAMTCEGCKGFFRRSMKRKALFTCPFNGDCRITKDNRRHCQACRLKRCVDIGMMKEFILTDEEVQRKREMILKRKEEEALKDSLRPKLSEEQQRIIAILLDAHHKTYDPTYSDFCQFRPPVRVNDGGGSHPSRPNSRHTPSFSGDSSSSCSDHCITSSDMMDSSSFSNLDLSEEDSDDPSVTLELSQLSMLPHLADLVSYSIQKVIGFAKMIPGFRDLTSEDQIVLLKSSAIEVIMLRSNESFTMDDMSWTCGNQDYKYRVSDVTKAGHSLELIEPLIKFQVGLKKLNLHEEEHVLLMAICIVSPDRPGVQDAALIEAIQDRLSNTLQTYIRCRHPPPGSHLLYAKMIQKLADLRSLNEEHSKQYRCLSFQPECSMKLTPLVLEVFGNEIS
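After 23 nl compound addition and a short centrifugation, plates sat for 2 hours at ambient temperature; polarization of fluorescence then indicated loss of VDR binding to peptide SRC2-3.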
* = called active by the depositor; ? = inconclusive; & = joins results of further samples; [ ] = remark or other dose. % is scaled to controls: 0 for no effect and ±100 for the full control effect; potency is read from the fitted curve at half-maximal effect. These rows are one share of the data, so the mix of outcomes need not match the whole.

SMILES	VDR inh
CN1c2ccccc2-c2nc(SCC(=O)Nc3ccccc3C(F)(F)F)ncc2S1(=O)=O	3%
O=C(O)CNC(=S)N(Cc1cccs1)C1CCCCC1	-7%
O=C(c1ccccc1)[C@@H]1O[C@H]1c1ccc(-c2ccccc2)cc1	1%
CC1(C)c2ccccc2N2CC(=O)NC21/C=C/c1ccco1 (configuration not stated)	4%
O=c1cc(CN2CCN(c3ccccn3)CC2)nc2sccn12	-7%
CSc1ccc(/C=N/n2c(C3CCCCC3)n[nH]c2=S)cc1	-4%
COc1cccc(C2c3c(-c4cc(Cl)c(C)cc4O)n[nH]c3C(=O)N2Cc2cccnc2)c1 (configuration not stated)	-2%
S=C(NCc1ccccc1)NCc1ccco1	-19%
COc1ccccc1P(=O)(Cc1ccccc1[N+](=O)[O-])c1ccccc1 (configuration not stated)	-7%
S=C1NC2=C(CCCC2=C2SCCS2)C(c2ccccc2)N1 (configuration not stated)	-22%
O=C1CC(N(O)C2CC(=O)N(Cc3ccccc3)C2=O)C(=O)N1Cc1ccccc1 (configuration not stated)	?
Cc1nc(Nc2ccccc2)sc1C(=O)c1ccccc1	5%
CCOc1ccc(NC(=O)C(C)NC(=O)c2ccccc2Cl)cc1S(=O)(=O)N1CCCC1 (configuration not stated)	-3%
COc1cccc(/C=N/NC(=O)c2cnccn2)c1O	6%
CCCCn1c(N)c(N(CC(C)C)C(=O)c2cc3c(s2)CCC3)c(=O)[nH]c1=O	1%
CN(C)c1ccc(NC(=O)CCSc2nc(-c3ccco3)cc(C(F)(F)F)n2)cc1	-17%
CC1(C)Cc2c(sc(NC(=O)Cc3ccccc3)c2C#N)CO1	8%
COc1ccc(CCNC(=O)COC(=O)c2ccc(Br)o2)cc1OC	-5%
COc1c(O)ccc(C2NC(=O)NC(C)=C2C(=O)Nc2ccccc2C)c1[N+](=O)[O-] (configuration not stated)	-10%
O=C1NC[C@@H](c2ccccc2)OC(=O)[C@H](Cc2ccc(F)cc2)C/C=C\C[C@@H]1CC(=O)N(CCO)Cc1ccccc1	19%
Cc1ccccc1N(CC(=O)Nc1ccc(S(=O)(=O)N2CCOCC2)cc1)S(C)(=O)=O	8%
Oc1ccccc1-c1nc(/C=C/c2ccc(F)cc2)no1	-15%
CC(=O)Nc1ccc(S(=O)(=O)N(C)CC(=O)N/N=C/c2cccc(O)c2)cc1	11%
CCC(CC)c1nnc(NC(=O)Cc2ccccc2[N+](=O)[O-])s1	-29%
CCOP(=O)(OCC)c1nc(-c2ccc(C)cc2)oc1N1CCOCC1	3%
CCc1ccccc1Nc1ncnc2c1nc1n2CCCC1	6%
Cc1ccn2cc(C(=O)Nc3cccc(C(=O)NC4CC4)c3)nc2c1	-1%
Cn1nc([N+](=O)[O-])nc1Sc1cccc2cccnc12	-19%
O=C(NCCc1ccccn1)c1ccc2nc(Cc3ccccc3F)oc2c1	2%
CCCCn1c(N)c(N(Cc2ccccc2OC)C(=O)C(C)C)c(=O)[nH]c1=O	-10%
Cc1cccc(NS(=O)(=O)c2ccc3nc(-c4ccccc4)[nH]c3c2)c1C	-14%&-11%
O=C1CCCN1CC(O)CS(=O)(=O)c1ccc(Cl)cc1 (configuration not stated)	0%
CCOc1ccccc1OCCn1ncc2ccc(OC)c(OC)c2c1=O	-1%
COc1ccc(C(=O)Nc2cc(C(F)(F)F)ccc2-n2cncn2)cc1	13%
Cc1cc(=O)oc2cc(OCC(=O)Nc3ccc(N4CCC(C)CC4)cc3)ccc12	-2%
Cc1nnsc1-c1c(C(=O)N2CCOCC2)c(C)nn1-c1ccc(Cl)cc1	-2%
O=C(CSc1nnc(-c2ccccc2Br)o1)N1CCN(C(=O)c2ccco2)CC1	5%
Cc1nnc(NC(=O)c2ccc(C)c(S(=O)(=O)N3CCOCC3)c2)s1	6%
Cc1ccc(C)c(OCCSc2nnc(C)c(=O)[nH]2)c1	-4%
CCCOc1ccc(-c2c(C(=O)N/N=C/c3ccsc3)nnn2-c2nonc2N)cc1	3%
COC(=O)C1=C(C)NC(=S)NC1c1ccc(OCC(=O)N2CC(C)OC(C)C2)c(OC)c1 (configuration not stated)	-8%
O=C(Nc1ccc(Cl)cc1)c1cc(S(=O)(=O)Nc2ccccn2)ccc1Cl	-4%
O=C(CS(=O)(=O)c1ccc(Cl)cc1)Nc1nc2ccc(Br)cc2s1	4%
O=C(CCn1c(=O)c2ccccc2n(Cc2ccc(Cl)cc2)c1=O)NCc1ccc2c(c1)OCO2	43%[activator]
O=C(CSc1ccccn1)Nc1ccc2c(c1)CCC2	-7%
CCn1c(C)c(C(C)=O)cc(C#N)c1=O	-1%
NC1=NC[C@H](c2ccccc2)N1CC1CCCCC1	2%
O=C(NCc1ccccc1CN1CCCC1)c1cccc(S(=O)(=O)N2CCOCC2)c1	21%
CCOc1ccc2nc(COC(=O)c3ccco3)c(C(C)=O)[n+]([O-])c2c1	5%
COc1ccc(-c2nnc(SCC(=O)Nc3ccc(C(C)=O)cc3)nc2-c2ccc(OC)cc2)cc1	11%
OC(COc1ccc2ccccc2c1)Cn1ccnc1 (configuration not stated)	9%
N#C/C(=C\c1ccccc1)c1nc(-c2cc3c(ccc4ccccc43)oc2=O)cs1	-2%
CC(=O)OC1C(OC(C)=O)N(C(C)=O)C(=O)N1C(C)=O (configuration not stated)	4%
COCCn1ccc(O)c(Cc2ccc(Cl)cc2)c1=O	9%
CC(OC(=O)CC1CCCCC1)C(=O)Nc1ccc(S(N)(=O)=O)cc1 (configuration not stated)	7%
CCN(CC(=O)NCc1ccc(F)cc1)C(=O)COc1ccc2ccccc2c1	-18%
CC(=O)Nc1ccc(NC(=O)c2cc3c(=O)n(Cc4cccnc4)ccc3nc2C)cc1	11%
Cc1c(OCC(=O)NCCN2CCOCC2)ccc2c1oc(=O)c1ccccc12	16%
CCC(=O)N1c2ccccc2CC1C(=O)NCCc1ccc(C)cc1 (configuration not stated)	11%
CCCC1NC(=S)NC(C)=C1C(C)=O (configuration not stated)	-4%
More results
SMILES	VDR inh
COc1ccc(CCNC(=O)c2ccc(Cn3c(=O)c4ccccc4n(Cc4cccc(Cl)c4)c3=O)cc2)cc1OC	13%
CC1CCCC(C)N1C(=O)Cn1cc(C#N)c2ccccc21 (configuration not stated)	-3%
COc1ccc(NC(=O)c2cc3ccccc3cc2O)cc1	45µM*
O=C(NC1(C(F)(F)F)C(=O)Nc2c1c(=O)[nH]c(=O)n2-c1ccc(F)cc1)c1cccnc1 (configuration not stated)	4%
Cc1c(C(=O)N2CCC(C)CC2)c(S(=O)(=O)Nc2cccc(C#N)c2)c(C)n1C	1%
C/C(=N\Nc1cc(C)nc(-c2ccccc2O)n1)c1ccccc1O	14%
Cc1nc(N2CCC(C)CC2)c2c(C)c(C(=O)Nc3cc(F)ccc3C)sc2n1	-4%
CCOc1cc(NS(=O)(=O)CC)c(OCC)cc1NC(=O)c1ccco1	-14%
CC(Sc1nc2c([nH]c3ccccc32)c(=O)n1C)c1ccccc1 (configuration not stated)	4%
N#Cc1ccccc1OCC(=O)N(C1CCCCC1)C1CCS(=O)(=O)C1 (configuration not stated)	-18%
CCN(CC)CCN(CC(=O)N(C1CCCCC1)C1CCCCC1)C(=O)c1ccco1	-6%
OCCN(CCO)Cc1ccc(Br)cc1	-29%
CCCSc1nnc2c(n1)OC(c1cccn1C)N(C(C)=O)c1ccccc1-2 (configuration not stated)	4%
CSc1ccc(S(=O)(=O)N2CCC(C(=O)NC3CC3)CC2)cc1	5%
Nc1nc2ccc(-c3nc4ccccc4o3)cc2s1	8%

A different layout for part of the listing above:
VDR inh | smiles
16% | Cc1c(OCC(=O)NCCN2CCOCC2)ccc2c1oc(=O)c1ccccc12
11% | CCC(=O)N1c2ccccc2CC1C(=O)NCCc1ccc(C)cc1 (configuration not stated)
-4% | CCCC1NC(=S)NC(C)=C1C(C)=O (configuration not stated)
13% | COc1ccc(CCNC(=O)c2ccc(Cn3c(=O)c4ccccc4n(Cc4cccc(Cl)c4)c3=O)cc2)cc1OC
-3% | CC1CCCC(C)N1C(=O)Cn1cc(C#N)c2ccccc21 (configuration not stated)
45µM* | COc1ccc(NC(=O)c2cc3ccccc3cc2O)cc1
4% | O=C(NC1(C(F)(F)F)C(=O)Nc2c1c(=O)[nH]c(=O)n2-c1ccc(F)cc1)c1cccnc1 (configuration not stated)
1% | Cc1c(C(=O)N2CCC(C)CC2)c(S(=O)(=O)Nc2cccc(C#N)c2)c(C)n1C
14% | C/C(=N\Nc1cc(C)nc(-c2ccccc2O)n1)c1ccccc1O
-4% | Cc1nc(N2CCC(C)CC2)c2c(C)c(C(=O)Nc3cc(F)ccc3C)sc2n1
-14% | CCOc1cc(NS(=O)(=O)CC)c(OCC)cc1NC(=O)c1ccco1
4% | CC(Sc1nc2c([nH]c3ccccc32)c(=O)n1C)c1ccccc1 (configuration not stated)
-18% | N#Cc1ccccc1OCC(=O)N(C1CCCCC1)C1CCS(=O)(=O)C1 (configuration not stated)
-6% | CCN(CC)CCN(CC(=O)N(C1CCCCC1)C1CCCCC1)C(=O)c1ccco1
-29% | OCCN(CCO)Cc1ccc(Br)cc1

Going on with the list.
SMILES	VDR inh
CCN1CCCC1CNC(=O)CSc1cc(=O)n(CC)c2ccccc12 (configuration not stated)	14%
COc1ncc2ncc(=O)n(CCc3ccccc3)c2n1	-2%
O=C(NC(=S)Nc1ccc(C(F)(F)F)cc1)c1csnn1	-19%
COC(=O)/C=C/c1ccccc1S(=O)(=O)N(Cc1ccccc1)Cc1ccco1	-23%&-14%
Cn1nc(-c2ccc(Cl)cc2)c2cc(C(=O)N3CCN(c4ccccn4)CC3)sc21	-11%
COc1cccc(CNC(=O)N2CCC(CN3CCC(C)CC3)CC2)c1	7%
COc1ccc(C(=O)C2CCCN(Cc3ccc(NC(C)=O)cc3)C2)cc1OC (configuration not stated)	-15%
CCc1ccccc1NC(=O)C1CCC(CNS(=O)(=O)c2ccc3c(c2)CC(C)N3C(C)=O)CC1 (configuration not stated)	17%
CN(C)c1ccc(CNC(=O)C2CCN(Cc3cc4ccccc4n3Cc3ccccc3)CC2)cc1	17%
Cc1noc(C)c1COc1ccc(C(=O)Nc2ccccn2)cc1	-6%
CC(=O)NNC(=O)c1[nH]c2ccc(Br)cc2c1-c1ccccc1	5%
O=C(CSc1nc(-c2ccc(F)cc2)nc2c1Cc1ccccc1O2)Nc1cccc(C(=O)O)c1	4%&-2%
O=C(Nn1cnnc1)c1cc(Br)ccc1Cl	-4%
O=C1Oc2ccccc2C(=O)/C1=C\N1CCN(c2ccccc2)CC1	-1%
O=[N+]([O-])c1ccc2c(c1)N([O-])C1(CCCCC1)[N+]2=O	?
CC1CCN(Cc2nnnn2CCCC(=O)NCC(C)(C)N2CCOCC2)CC1	11%
C=CCc1cccc(/C=N/n2cnnc2)c1O	33%[activator]
O=C(Nc1ccc(Cl)cc1F)c1cccc2ccccc12	13%
CS(=O)(=O)N1CCN(c2ccc([N+](=O)[O-])c3cccnc23)CC1	-5%
CCCCC(NC(C)=O)c1nc2ccccc2n1CCCC (configuration not stated)	-16%
CC(=O)COc1ccc2c3c(c(=O)oc2c1C)CCCCC3	-4%
CCCOc1ccc(C(=O)O/N=C(\CC)c2ccc(C)cc2)cc1	-3%
CN(Cc1ccccc1)c1ncnc2[nH]ncc12	1%
COC(=O)C(CO)NC(=O)C1CCCN1C(=O)CNC(=O)OCc1ccccc1 (configuration not stated)	7%
Cc1ccc(CNS(=O)(=O)c2ccc3c(c2)CCN3C(=O)C2CCC2)cc1	3%
CCc1ccc(NC(=S)NC2CC3CCCC(C2)N3Cc2ccccc2)cc1 (configuration not stated)	-7%
COc1cc(CNc2ncc(-c3ccc(Br)cc3)n2C)cc(OC)c1O	-4%
CCOC(=O)C1(Cc2ccccc2C)CCCN(C(=O)c2sccc2C)C1 (configuration not stated)	-3%
COc1cc(-c2n[nH]c(=O)o2)cc(OC)c1OC	-2%
N#Cc1c[nH]n2c(NC3CCCCC3)c(-c3ccc(F)cc3)nc12	10%
O=C(C1CCN(C2CCN(Cc3cccc4c3OCO4)CC2)CC1)N1CCOCC1	-1%
O=C(OCC(=O)N(CCc1ccccc1)Cc1ccccc1)c1ccccc1[N+](=O)[O-]	-13%
COc1cc(Nc2nc3c(S(=O)(=O)c4cccc(Cl)c4)nnn3c3ccsc23)cc(OC)c1	0%
COc1ccc(CN2CCN(c3ncnc4scc(-c5ccc(F)cc5)c34)CC2)cc1	-3%
COc1ccc(NC(=O)CCSc2nnnn2C)cc1	-20%
Cc1ccc(SC[C@H](C)CN2CC[C@H](NC(=O)OCc3ccccc3)CCC2=O)cc1	1%
O=C(CC1CC2CCC1C2)N1CCN(S(=O)(=O)c2ccccc2[N+](=O)[O-])CC1 (configuration not stated)	-16%
Cn1ccc(C(=O)Nc2ccc3c(c2)OCCO3)n1	26%
O=C(NC1=NCCS1)c1ccccc1OCc1ccccc1Cl	-15%
CN(CC(=O)Nc1ccc(Cl)c(C(F)(F)F)c1)C(=O)C1CC(=O)N(C2CCCC2)C1 (configuration not stated)	4%
O=C1COc2ccc(C(=O)CSc3nnnn3-c3ccccc3)cc2N1	9%
Cc1[nH]n(-c2ccccc2)c(=O)c1N=O	0%
C=CCN1C(=O)N/C(=C/c2ccc(C)o2)C1=O	-27%
N=C1C(c2ccccc2)=C(O)CN1c1cccc(S(=O)(=O)Nc2cccc(C(F)(F)F)c2)c1	-24%
O=C(Nc1ccc(F)cc1)NC1(C(=O)NCc2cccs2)CCCCC1	-2%
COCC(=O)n1nc(-c2ccccc2)nc1NCc1ccccc1	7%
C#CC1(O)CCC2C3CCc4cc(O)cc(C)c4C3CCC21C (configuration not stated)	5%
O=C(NC1=NCCS1)c1ccc(-c2ccc(Cl)cc2)o1	-6%
